Screening data (PubChem)
PMP22 txn: modulators of PMP22 gene transcription in S16 Schwann cells | 43,000 tested, 2% active | Potency, µM (top dose mostly 57.5 µM), for inactives: top-dose activity change, negative = inhibition, most hits filed as inhibitors | S16 Pmp22-F2sN Schwann cells (luciferase reporters placed in the Pmp22 gene), FLuc/NLuc coincidence luminescence, 24 h; active = clear falling dose curves in both reporters; inconclusive = both reporters move, but less clearly or upward; inactive = either reporter flat; the % is the NLuc reporter signal; further: on the % scale 0 is the no-effect control and ±100 the full control effect; some results filed as inactive show a strong effect at the top dose
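qHTS, 1536-well. Cells seeded, compounds added by pin tool, 24 h 37C. Nano-Glo reagent 1 (lysis/FLuc), 10 min RT, read; Stop&Glo, 10 min RT, read NLuc.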
HTT promoter inh: HTT promoter inhibition. HEK293 HTT promoter firefly luciferase reporter (activity 0% = vehicle and -100% = no light), 24 h. 48,000 tested, 0.93% active. Potency, µM (doses to about 57.5 µM), for inactives: at the top dose activity change, negative = inhibition, usual class: inhibitors; active means well fitted inhibition curve with a large enough effect; inconclusive means small, poorly fitted or top-dose-only effect; inactive means no such curve, though single readings can be large or run the other way; further: nearly all actives have a fitted effect of over 50% in size
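Firefly luciferase readout (Dual-Glo, 10 min RT) after 24 h, 37 °C compound exposure (final up to 57.5 uM) of HEK293 reporter cells cultured 24 h beforehand; PTC124 at 50 uM final as control inhibitor; activity scaled vehicle 0%, zero RLU -100%.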
The depositor's hits bear a star; ? = inconclusive; . = no result given; [ ] = dose if it differs, or a comment. Potency means the concentration at half of the fitted maximal effect.

SMILES	PMP22 txn	HTT promoter inh
COc1ccc(/C=C/c2nc(C#N)c(N3CCC(C)CC3)o2)cc1OC	-1.9%	-21.4%
CCCn1c2ccccc2c2cnn(CC(=O)NCCc3ccc(OCC)cc3)c(=O)c21	?	-4.0%
CCOC(=O)c1ccc(NC(=O)C2=C(C)Nc3nc(SCc4ccc(Cl)cc4)nn3C2c2ccc(OC)cc2)cc1 (centres undefined)	?	-4.1%
COC(=O)Cn1c(CN2CCN(c3ccc(OC)cc3)CC2)nc2c1c(=O)[nH]c(=O)n2C	-12.5%	-6.9%
COc1ccccc1N1C(=O)N(CC(=O)C(C)(C)C)c2ccccc2S1(=O)=O	2.3%	-15.0%
COCCCn1c(=O)c2sccc2n2c(CCCC(=O)Nc3cccc(C(F)(F)F)c3)nnc12	-12.6%	-15.3%
COc1ccc(C2C(C(N)=O)=C(C)Nc3nc(CCCO)nn32)cc1 (centres undefined)	13.1%	-0.4%
CC1CCN(S(=O)(=O)c2ccc3[nH]cc(C(=O)NCc4ccc(F)cc4)c(=O)c3c2)CC1	-29.6%	-1.8%
CC(CN1c2ccccc2Sc2ccccc21)N(C)C (centres undefined)	.	-7.5%
COc1ccc(C2c3c(n(C)c4ccccc34)C(=O)N2CC(=O)Nc2cccc(Cl)c2C)cc1 (centres undefined)	-14.7%	-16.2%
CCCn1cc(S(=O)(=O)c2ccccc2)c(=O)c2cc(F)c(N3CCCCC3)cc21	-29.5%	-9.2%
COc1ccc(C(=O)NCC(c2ccc3c(c2)OCO3)N2CCN(c3ccccc3F)CC2)cc1 (centres undefined)	102.7%	?
O=C(O)c1cc(-c2ccc(C(F)(F)F)cc2)nc2n[nH]c(-c3ccccc3)c12	11.2%	26.2%
CCOC(=O)c1c(C)[nH]c(CCC(=O)Nc2ccccc2C(F)(F)F)c1C	1.6%	-16.8%
C=C1C(=C/C=C2\CCC[C@]3(C)[C@@H]([C@H](C)/C=C/[C@@H](O)C4CC4)CC[C@@H]23)C[C@@H](O)C[C@@H]1O	.	-11.3%
COc1ccc(C)cc1Nc1cc(C)nc(C)n1	?	49.9%[activator]
Cc1ccc(CN2C(=O)c3ccccc3Sc3ccc(C(=O)NCc4ccco4)cc32)cc1	10.9%	?
CC(C)CCn1c(=O)c2sccc2n2c(CCCC(=O)NC(C)C)nnc12	-4.6%	-14.6%
Cc1ccc(-c2nc3ccccc3n3c(-c4ccccc4)c4c(=O)n(C)c(=O)n(C)c4c23)cc1	4.1%	-4.9%
CN(CC(=O)Nc1ccc(F)cc1F)S(=O)(=O)c1ccc(C(=O)N2CCOCC2)s1	?	?
COc1cc(OC)cc(C(=O)Nc2ccc3c(c2)CCCN3C(=O)c2cccs2)c1	?	?
COc1ccc(-c2onc(C)c2C)cc1S(=O)(=O)NCC1CCN(Cc2cc(C)ccc2C)CC1	?	-30.8%
Cc1noc(Cn2c(=O)c3ccccc3n(CC(=O)Nc3ccccc3C(F)(F)F)c2=O)n1	4.2%	-8.2%
CCc1ccc2c(c1)c(=O)c(C(=O)c1ccc(C)cc1)cn2CC(=O)Nc1ccccc1C	4.1%	-17.7%
CCc1ccccc1NC(=O)Nc1cc(C(=O)NCc2cccc(F)c2)ccc1N1CCCC1	?	?
Cc1nnc(SCC(=O)Nc2ccc(N(C)C)cc2)[nH]c1=O	5.7%	8.3%
CSc1ccc(CNC(=O)c2cc3cc(S(=O)(=O)N4CCCCC4)ccc3n2C)cc1	-2.5%	?
CCn1c(CN2CCOCC2)nc2cc(NC(=O)c3cccc([N+](=O)[O-])c3)ccc21	-20.5%	-10.4%
CCOC(=O)c1ccccc1NC(=O)NC(C)c1c(-n2cccc2)sc(C)c1C (centres undefined)	0.7%	-25.6%
CN(N=O)C(=O)N[C@H]1C(O)OC(CO)[C@@H](O)[C@H]1O (some centres undefined)	.	2.8%
CCOc1ccc(NC(=O)CN(C)S(=O)(=O)c2ccc3[nH]c4c(c3c2)CCCC4)cc1	17µM*	?
Cc1ccc(Cl)cc1N(C)C(=O)c1sc2nc3n(c(=O)c2c1C)CCCC3	-3.9%	-29.5%
CCNc1nc2c(c(=O)[nH]c(=O)n2C)n1CC(O)COc1ccc(Cl)cc1Cl (centres undefined)	-27.7%	?
CC(C)c1ccc(OCC(=O)Nc2cc(-c3ccccc3)no2)cc1	2.4%	2.9%
Cc1cccc(-c2noc(-c3cccnc3NCc3ccccc3Cl)n2)c1	-8.5%	1.7%
COc1cccc(CNC(=O)CSc2c3c(nc4cc(Cl)ccc24)CCCC3)c1	?	-14.2%
Cc1ccc(-c2nnn3c2nc(NCCc2ccc(Cl)cc2)c2ccccc23)cc1	?	-6.4%
COc1ccc(Cl)cc1NC(=O)N1CCC(CN2CCCCCC2)CC1	?	-10.5%
Cc1cccc(-n2ncc(C(=O)NCc3ccccn3)c2C2CCN(C(=O)OC(C)(C)C)CC2)c1	?	12.5%
CCOCCCn1c(SCC(=O)Nc2cccc(OC)c2)nc2ccccc2c1=O	-11.1%	?
CCN(CC)S(=O)(=O)c1ccc2c(c1)N(CC(=O)NCCCN1CCN(c3cc(C)ccc3C)CC1)C(=O)CO2	?	?
CCN(c1ccccc1)S(=O)(=O)c1ccc(NC(=O)c2cc(=O)c3ccccc3o2)cc1	-14.1%	-15.0%
CC(C)c1ccc(NC(=O)c2ccc(=O)n(Cc3ccccc3)c2)cc1	?	?
CC(C)NC(=O)C1=CC(c2ccc3c(c2)OCO3)=NS(=O)(=O)N1C	-12.0%	-12.9%
COc1ccc(OC)c(-c2csc(-c3c(N)c(C(=O)c4ccc(Cl)cc4)n4ccccc34)n2)c1	?	-29.3%
CCOc1cc(C(=O)Nc2cccc3cccnc23)cc(OCC)c1OCC	?	-23.5%
CCC(=O)N1CCc2cc(CNS(=O)(=O)c3ccc(Cl)s3)ccc21	-42.1%	?
CCCCOc1cccc(C2c3c(oc4ccccc4c3=O)C(=O)N2c2ccccn2)c1 (centres undefined)	-2.4%	-5.4%
Cn1c(SCC(=O)Nc2ccccc2)nnc1-c1ccccc1	30.0%	-11.6%
COc1cc(CNC(=O)c2ccc3c(c2)c(C)c(C)n3Cc2cccc(C)c2)cc(OC)c1OC	?	?
CCC(CC)c1nn2c(=O)cc(COc3ccc(NC(=O)c4cccc(Cl)c4)cc3)nc2s1	3.6%	-11.5%
COc1ccc(CCNC(=O)C(=O)Nc2ccc(C)c(C)c2)cc1OC	-19.4%	16.0%
Cc1ccccc1-c1nc(SCC(=O)N(C)c2ccccc2)c2c(=O)n(C)c(=O)n(C)c2n1	?	31.6%[activator]
CCc1ccccc1NC(=O)CN1C(=O)C2CCCN2c2ccc(S(=O)(=O)N(CC)CC)cc21 (centres undefined)	0.3%	-5.6%
Cc1ccc2c(c1)c1c(c(=O)n(-c3ccccc3C)c(=O)n1Cc1cccc(F)c1)n2C	?	-19.7%
CCOc1ccc(CNC(=O)c2ccc3c(c2)nc2n3CCOC2)cc1OC	2.0%	-9.6%
Cc1nn(-c2ccc3nnc(C)n3n2)c(C)c1CCC(=O)Nc1ccc(OC(F)(F)F)cc1	-2.0%	-6.7%
COC(=O)c1ccc(OC)c(CN2C(=O)N(c3ccc(C(C)=O)cc3)S(=O)(=O)c3ccccc32)c1	-18.4%	?
CCOc1ccc(CCNC(=O)c2cc(C)nc3c2c(C)nn3-c2cccc(F)c2)cc1	-25.8%	?
CCCS(=O)(=O)c1nc(S(=O)(=O)c2ccc(C)cc2)c(NCCCOC(C)C)s1	-16.3%	-23.0%
(listing goes on)
SMILES	PMP22 txn	HTT promoter inh
CSc1cccc(NC(=O)CN2C(=O)COc3ccc(Cl)cc32)c1	5.3%	?
CCOc1ccccc1NC(=O)CSc1ccc2nc(-c3ccccc3)cn2n1	?	?
CCOc1ccc(C(=O)N(Cc2sccc2C)C2CCS(=O)(=O)C2)cc1 (centres undefined)	-1.9%	-17.6%
CCCCOc1ccc(C(=O)Nc2cc(-c3ccc(C)cc3)no2)cc1	-12.6%	1.0%
Cc1ccc(-n2ncc3c(NCCC4=CCCCC4)ncnc32)cc1C	-2.6%	-22.9%
CO[C@@H]1[C@@H](O[C@@H]2O[C@H](C)[C@@H](O[C@H]3C[C@@](C)(O)[C@@H](O)[C@H](C)O3)[C@H](N(C)C)[C@H]2O)[C@@H](CC=O)C[C@@H](C)[C@@H](O[C@@H]2CC[C@H](N(C)C)[C@@H](C)O2)/C=C/C=C/C[C@@H](C)OC(=O)C[C@H]1OC(C)=O	.	-2.5%
Cc1ccc(-n2nc3c(N4CCC(C(=O)N(C)Cc5ccccc5)CC4)nnc(C)c3c2C)cc1	-3.5%	-0.2%
Cc1ccccc1Nc1c(-c2ccsc2)nc2c(C)cccn12	?	-13.6%
COc1ccc(S(=O)(=O)NCC(c2ccco2)S(=O)(=O)c2cccs2)cc1F (centres undefined)	15µM*	?
Cc1cccc(-n2c(-c3ccco3)nc3c(cnn3-c3ccc(F)cc3)c2=O)c1	?	17.8µM*
CCCN(CCC)S(=O)(=O)c1ccc(C(=O)Nc2cccc(-c3nc4ccccc4[nH]3)c2)cc1	18.9µM*	?
CCCS(=O)(=O)c1c(S(=O)(=O)CCC)c2cc(CC)ccn2c1C(=O)c1ccc(Cl)cc1	-6.7%	-27.3%
CCc1ccccc1NC(=O)c1cc(S(=O)(=O)N2CCc3ccccc32)ccc1F	?	?
CC(C)C[C@H](NC(=O)CNC(=O)c1cc(Cl)ccc1Cl)B(O)O	.	?
CCOc1ccc(CC(=O)NCCc2csc(-c3ccc(C)cc3)n2)cc1	3.5%	?
COc1cc(OC)c(NC(=O)CCNS(=O)(=O)c2ccc3c(c2)oc(=O)n3C)cc1Cl	2.1%	22.3%
COc1cccc(-c2nc3c(C#N)c[nH]n3c2NC2CCCCC2)c1	-40.6%	9.5%
COc1cccc(CN2CCc3nc(Nc4ccc5c(c4)OCCO5)ncc3C2)c1	-16.5%	-23.8%
CC1CCN(S(=O)(=O)c2cc(C(=O)Nc3ccc(Br)cc3F)n(C)c2)CC1	-39.3%	-34.1%
COc1ccc(CCNC(=O)CCn2c(=O)c3ccccc3n(Cc3ccccc3)c2=O)cc1OC	?	-12.7%
CCCN(c1ccc(C(C)C)cc1)S(=O)(=O)c1ccc2c(c1)oc(=O)n2CC(=O)OCC	-11.0%	?
CC1CCCCN1CCCNC(=O)Cn1ncc2c3ccccc3n(C)c2c1=O (centres undefined)	-21.1%	4.8%
COc1ccc(-c2ccc(NS(=O)(=O)c3ccccc3)cc2)nn1	4.4%	-19.7%
Cc1oc2c(c1C(=O)Nc1ccc(OC(F)(F)F)cc1)C1=NCCN1C=N2	-23.1%	-5.5%
COc1ccccc1N1CCN(C(=O)C2CCN(S(=O)(=O)c3cccc4nonc34)CC2)CC1	-11.6%	-2.1%
Cc1cc(NC(=O)C(C)C)cc(-c2nc3ncccc3o2)c1O	?	-8.1%
Cc1ccc(C)c(NC(=O)Cn2c(=O)n(CCCS(=O)(=O)C3CCCCC3)c(=O)c3ccccc32)c1	0.9%	-11.9%
CCOc1ccccc1Nc1nnc(-c2cc3cc(Cl)ccc3oc2=O)s1	-23.8%	-14.8%
CCOc1ccc(Nc2cc(C(=O)NCc3ccccc3Cl)c3ccccc3n2)cc1	-33.5%	4.1%
COc1ccccc1-c1nc(SCC(=O)c2ccc(Cl)cc2)n[nH]1	-13.1%	-36.8%
CCOC(=O)c1c(C)[nH]c(C)c1S(=O)(=O)N1CCN(c2cc(Cl)ccc2C)CC1	?	?
COc1c(N2C[C@@H]3CCCN[C@@H]3C2)c(F)cc2c(=O)c(C(=O)O)cn(C3CC3)c12	.	9.7%
O=C(Nc1ccc(C(=O)OCc2cc(=O)n3nc(C4CC4)sc3n2)cc1)c1ccccc1	-6.4%	-12.2%
CCN(CC)CCNC(=O)Cn1nc(C)c2c(C)n(-c3ccccc3)nc2c1=O	-5.5%	-12.1%
COC(=O)CSCc1nc(-c2ccc(C(=O)OC)cc2)oc1C	?	2µM*

In the list so far, ten have an aryl thioether with sulfur outside any ring.
SMILES	PMP22 txn	HTT promoter inh
CCOC(=O)c1ccc(NC(=O)C2=C(C)Nc3nc(SCc4ccc(Cl)cc4)nn3C2c2ccc(OC)cc2)cc1 (centres undefined)	?	-4.1%
Cc1nnc(SCC(=O)Nc2ccc(N(C)C)cc2)[nH]c1=O	5.7%	8.3%
CSc1ccc(CNC(=O)c2cc3cc(S(=O)(=O)N4CCCCC4)ccc3n2C)cc1	-2.5%	?
COc1cccc(CNC(=O)CSc2c3c(nc4cc(Cl)ccc24)CCCC3)c1	?	-14.2%
CCOCCCn1c(SCC(=O)Nc2cccc(OC)c2)nc2ccccc2c1=O	-11.1%	?
Cn1c(SCC(=O)Nc2ccccc2)nnc1-c1ccccc1	30.0%	-11.6%
Cc1ccccc1-c1nc(SCC(=O)N(C)c2ccccc2)c2c(=O)n(C)c(=O)n(C)c2n1	?	31.6%[activator]
CSc1cccc(NC(=O)CN2C(=O)COc3ccc(Cl)cc32)c1	5.3%	?
CCOc1ccccc1NC(=O)CSc1ccc2nc(-c3ccccc3)cn2n1	?	?
COc1ccccc1-c1nc(SCC(=O)c2ccc(Cl)cc2)n[nH]1	-13.1%	-36.8%
